# NPYLR7 agonist: mosquito NPYLR7 agonism; AID 1259423; hit rate 0.15% among 270,000; HEK293T NPYLR7/Galpha15, GCaMP6s calcium fluorescence; activation, % at 10 µM; in the data active = activation above about 40%;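 note: 0% = vehicle and 100% = reference agonist at the receptor; some compounds past the cut are filed as inactive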
# NPYLR7 agonist max-min: recorded beside NPYLR7 agonist, whose call it bears; activation, %; measured here: Max-Min RFU normalised activation; some inactives read as strong as hits;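 span of the calcium signal over five minutes; 0% = vehicle and 100% = native peptide agonist; compound fluorescence can raise it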
# * hit, by the source's call; & = joins results of further samples. Not all compounds are listed. The share of hits here may be higher or lower than overall.
SMILES,NPYLR7 agonist,NPYLR7 agonist max-min
CCOc1ccc(-c2ccc(OCCNC(=O)Cc3cccs3)nn2)cc1,0,-1
O=S(=O)(c1ccc(Cl)cc1)n1cnc2ccccc21,24,10
FC(F)(F)c1cccc(N2CCN(C3CCCN(Cc4cnc[nH]4)C3)CC2)c1 (stereo not given),-1,-7
Cc1cc(C(F)(F)F)nc(CCn2ccnc2-c2ccc(CO)o2)n1,5,4
Cc1ccccc1CCNC(=O)Cn1c(-c2cccs2)n[nH]c1=S,0,-1
O=C(NCCc1ccco1)C1CC(Cc2ccc(F)cc2)=NO1 (stereo not given),12,2
Cc1cccc(-n2c(C(C)N(C)C(=O)C(Cl)c3ccccc3)nc3ccccc3c2=O)c1 (stereo not given),9,7
Cc1ncc(CN(C)Cc2nnc(-c3cccc(Cl)c3)o2)s1,1,1
CCCc1ccc(CN2CCOCC(CN(C)C)C2)o1 (stereo not given),5,6
CCc1nc2ccc(C(=O)NCCc3c[nH]c4ccccc34)cn2c1N(C)C(=O)COc1ccccc1,-5,-8
Cc1nc2scc(C)n2c(=O)c1NC(=O)CC1CCCCC1,13,0
CSc1nc2nc(C)c(CCC(=O)N(C)Cc3cccc(Cl)c3Cl)c(C)n2n1,2,1
CCC1CN(S(=O)(=O)C2CS(=O)(=O)c3ccccc32)CCO1 (stereo not given),0,15
Cc1cc(C(=O)N2CCC(Cc3ccccc3)CC2)nc2cc(-c3ccccc3)nn12,19,19
Clc1ccc(Oc2ccnc3cc(Cl)ccc23)cc1,-6,-11
O=C(NCCC1CCCO1)c1cc(Cl)ccc1F (stereo not given),-1,-3
COc1ccc(S(=O)(=O)n2ccnc2C)c2ccccc12,-8,447
Cc1cc(C)nc(SCc2cc(=O)c(OC(=O)c3ccc(C(C)(C)C)cc3)co2)n1,-21,-17
O=C(c1cn(Cc2cccc3ccccc23)nn1)N(CCO)Cc1ccccc1,-9,-13
CCOC(=O)[C@H](CCc1ccccc1)N[C@@H](C)C(=O)N1[C@H](C(=O)O)C[C@@H]2CCC[C@@H]21,0&-12&7,-6&-17&7
O=C(NNc1nc(-c2ccccc2)c2cc(Br)ccc2n1)c1ccc(-c2ccccc2)cc1,1,9
CCn1cc(C(=O)Nc2cc(C)ccn2)c2nn(-c3ccccc3)c(=O)c-2c1,-1,2
COc1ccc2c(c1)SC1=NS(=O)(=O)CCN12,0&9,2&3
CCC(c1cccnc1)N(C)Cc1cccc(C(=O)Nc2cnn(C)c2)c1 (stereo not given),-1,-10
CCOC(=O)C1=C(C)NC(C)=C(C(=O)OCC)C1c1cc(Cl)ccc1OC(F)F,50*,44*
CCc1nc2ccc(C(=O)N(CC)CCN(C)C)cn2c1N(C)Cc1ccc(OC)cc1,6,-5
CCC(C)(C)C1CC(=Cc2cnn(C)c2)C(=O)C(=Cc2cnn(C)c2)C1 (stereo not given),4,5
O=C(Nc1nc([C@@H]2O[C@H](CO)[C@@H](O)[C@H](O)[C@H]2O)cs1)NC(c1ccccc1)c1ccccc1,0,15
CC(NC(=O)c1ccc(-c2ccccc2F)s1)C(=O)N1CCCCC1 (stereo not given),0,0
Cc1ccsc1[C@@H]1CCN(C2CCN(S(C)(=O)=O)CC2)C[C@H]1O,4,-1
CCOCCCN(CC(=O)N(Cc1ccc2c(c1)OCO2)Cc1ccco1)C(=O)c1cccc([N+](=O)[O-])c1,-2,3
O=S(=O)(c1ccc2c(c1)nc(SCc1ccc(F)cc1Cl)n2CCCN1CCOCC1)N1CCOCC1,4,0
Cc1cccn2c(CC(=O)N3CCC(c4nnc5ccccn45)CC3)cnc12,8,6
CSc1ccccc1C(=O)N1CCCC(CCC(=O)Nc2ccc(F)cc2C)C1 (stereo not given),11,-3
CCOC(=O)C(c1cc(OC)ccc1OC)C1C=CC(NC(=O)C(F)(F)C(F)(F)C(F)(F)F)C1 (stereo not given),2,10
COC(=O)CCSc1nnc(-c2ccccc2)n1-c1ccc(OC)cc1,11,3
COc1ccc(N2C(=O)CSC2c2ccc(NC(=O)c3cccc(OC)c3)cc2)cc1 (stereo not given),-2,3
O=C1NC(=S)N(c2ccccc2)C(=O)/C1=C\c1c2ccccc2cc2ccccc12,-2,-8
COc1cccc(Cn2cccc2CN(Cc2ccccc2)C(=O)CN(CC(C)C)S(=O)(=O)c2ccc(F)cc2)c1,-2,4
CN1CCN(c2nccc3c2ncn3Cc2ccccc2)CC1,-5,-13
COc1cc(C2CC(=O)N(CC(=O)N3CCOCC3)c3ccccc3S2)cc(OC)c1OC (stereo not given),-3,-3
O=C(CSc1ncccc1C(=O)N1CCC(Cc2ccccc2)CC1)c1ccccc1,-7,-12
O=C(c1cccc2nccnc12)N1[C@H]2CCNC[C@@H]1CC2,21,12
FC(F)(F)c1ccc(NCC2CNCCOC2)nc1 (stereo not given),0,-8
COC(=O)c1ccc(CN(C)C(=O)C2CCN(C(=O)C3CC3)CC2)cc1,-1,-15
COc1ccc(C(=O)N(Cc2cc(N)ccc2N(C)C)C(C)c2ccccc2)cc1 (stereo not given),4,2
CC(C)(C)c1nnc(N/N=C\c2ccc(OCc3ccccc3)cc2)[nH]c1=O,2,-1
Cc1ncc2c(c1CNC(=O)Cc1cccs1)CCN(C(=O)/C=C/c1ccccc1Cl)C2,15,2
O=C(NCCCn1nc(-c2cccnc2)ccc1=O)c1ccc(C(F)(F)F)cc1,7,1
COc1cc2cc(CN(C)C(C)c3ccon3)c(=O)[nH]c2cc1OC (stereo not given),3,2
COCCN1CCN(c2nc(-c3cccc(F)c3)c3c(N)n(-c4cc(F)ccc4F)nc3n2)CC1,6,6
NCc1ccc(C(=O)O)cc1,4,3
Cc1noc(C)c1S(=O)(=O)N1CCN(C(=O)c2ncoc2C(C)C)CC1,0,-4
CC(C)N(CCSc1nc2cc(S(=O)(=O)N3CCCC3)ccc2n1C(C)C)C(C)C,5,4
CC1CCc2c(sc(NC(=O)c3ccccc3[N+](=O)[O-])c2C#N)C1 (stereo not given),-1,-5
CN(CC(=O)O)S(=O)(=O)c1cccs1,1,-2
O=C(Nc1nc2c(s1)CCCC2)c1cc([N+](=O)[O-])cc([N+](=O)[O-])c1,-1,-3
CO/N=C(/C(=O)N[C@@H]1C(=O)N2C(C(=O)O)=C(C[N+]3(C)CCCC3)CS[C@H]12)c1csc(N)n1,4,-2
CC(C)CN1CC23C=CC(O2)C(C(=O)OC(C)C)C3C1=O (stereo not given),-2,-5
O=C1CS(=O)(=O)C(c2ccccc2)N1c1ccccc1 (stereo not given),-7,-8

# Other entries
SMILES,NPYLR7 agonist,NPYLR7 agonist max-min
O=C(NC(C(=O)NC1CC1)C1CCN(C(=O)c2cccc(F)c2)CC1)c1ccc(F)cc1 (stereo not given),6,5
COc1ccc(N2C(=O)CSC2c2ccc(F)cc2)c(OC)c1 (stereo not given),-4,-10
COc1ccc(C(=O)C=Cc2cc(Br)ccc2F)c(OC)c1,-1,-6
CC(C)(C#N)CCCS(=O)c1ccc(C(=O)N2CCCC2)cn1 (stereo not given),10,8
C#CCn1c(O)c(N=NC(=O)CNC(=O)COc2cccc(C)c2)c2ccccc21,-5,-10
CCn1c2ccccc2c2cc(CN3CCC4(CC3)Nc3ccccc3C(=O)N4OC)ccc21,2,13
OCc1cc(N2CCN(Cc3cc(Cl)ccc3O)CC2)ccn1,22,8
CC(C)n1c2c(=O)n(C)c(=O)n(C)c2n2c(-c3c(F)cccc3Cl)nnc12,7,4
CN(CC(=O)O)C1CCS(=O)(=O)C1 (stereo not given),-2,-5
O=C1c2cccc(O)c2CCN1Cc1ccc(Br)cc1,-4,-4
Cc1ccc(NC(=O)N(C)Cc2ccc(O)cc2)cc1F,-1,-2
O=c1[nH]c(SCCO)nc2sc3c(c12)CCCC3,40*,60*
C[C@@H]1C[C@H]2[C@@H]3C[C@H](F)C4=CC(=O)C=C[C@]4(C)[C@@]3(Cl)[C@@H](O)C[C@]2(C)[C@H]1C(=O)COC(=O)C(C)(C)C,33,28
COc1ccc(-n2c(SCc3ccc(C(=O)NC4CC4)cc3)nnc2-c2cccs2)cc1,20,21
COc1coc(COC(=O)c2ccc(F)cc2)cc1=O,1,12
CCOCCNC(=O)c1ccc(NC(=O)N2CCCCC2)c(F)c1,0,-3
Cc1cnc2c(C(=O)NC3CC(=O)N(CCc4ccc(F)cc4)C3)cnn2c1 (stereo not given),4,3
O=C1C(Cl)=C(Nc2cccc(C(F)(F)F)c2)C(=O)N1Cc1cccc(Cl)c1,19,12
CCn1c(SCc2cc(=O)n3c(C)cccc3n2)nnc1-c1ccco1,-15,-15
CCn1nnc2cc(C(=O)N(C)CC(=O)Nc3ccc(OC(F)(F)F)cc3)ccc21,3,3
O=c1cc(CN2CCC3(CC2)OCCO3)c2cc(O)ccc2o1,-2,-4
CCCCCCSC1=C(C#N)C2(CCCCC2)C(C#N)C(=O)N1 (stereo not given),0,0
Cn1nc(C(=O)NNC(=O)c2cccc3ccccc23)c2ccccc2c1=O,5,8
COCOc1ccc(-c2cc(-c3cccc(C(F)(F)F)c3)cnc2N)cc1,3,-6
O=C(OCC1CCCO1)c1c(Cl)cccc1Cl (stereo not given),1,1
CCOC(=O)c1c(C2CC2)csc1NC(=O)COC(=O)C1=COCCO1,3,5
Cc1cnn(Cc2cccc(Cl)c2)c1NC(=O)C1COCCO1 (stereo not given),0,-23
CC(=O)Nc1cccc(NC(=O)CSc2nc(-c3ccccc3)nc3c2c(=O)n(C)c(=O)n3C)c1,-3,-7
O=C(c1ccc(SCc2ccccc2)nc1)N1CCOCC1,-4,-7
CCCn1nnc(NC(=O)c2ccc(Br)o2)n1,-1,0
C=C(C)Cn1c(SCCN2CCOCC2)nc2c1c(=O)[nH]c(=O)n2C,4,27
COc1ccc(CCN2CCCC(CN(C)Cc3ccon3)C2)cc1 (stereo not given),2,-1
Cc1cc2n(n1)CC(CNC1CC(C)(C)Cc3oc(C)cc31)CN2 (stereo not given),0,-1
Cc1cc(C(=O)Nc2ccc(N3CCOCC3)nc2)c(C)n1Cc1ccco1,15,14
Cc1cccc(CNC(=O)c2ccc(-c3ccc(Oc4ccccc4)cc3)s2)c1,15,19
Cc1cc(C)c(Cn2ccnc2CN(CC(C)C)C(=O)C2CC2)c(C)c1,2,10
CC(C)CN(Cc1cccc(OS(=O)(=O)c2cccc(C(F)(F)F)c2)c1)C(=O)Nc1c(Cl)cccc1Cl,-3,3
O=S(=O)(c1cccs1)N1CCN(c2ncnc3c2nnn3-c2cccc(F)c2)CC1,-9,-16
CCOC(=O)c1ccc(NC(=O)N2CCc3cc(OC)c(OC)cc3C2c2c(F)cccc2Cl)cc1 (stereo not given),9,11
Cc1ccc(CN2CCN(Cc3ccncc3)CC2CCO)o1 (stereo not given),5,-1

# Compound profiles (already shown).
# Cc1ccc(CN2CCN(Cc3ccncc3)CC2CCO)o1 (stereo not given) across the screens: NPYLR7 agonist: 5; NPYLR7 agonist max-min: -1
# Cn1nc(C(=O)NNC(=O)c2cccc3ccccc23)c2ccccc2c1=O across the screens: NPYLR7 agonist: 5; NPYLR7 agonist max-min: 8

# Continuation:
SMILES,NPYLR7 agonist,NPYLR7 agonist max-min
CCOC(=O)C1=C(C)N=c2s/c(=C/c3ccc4c(c3)OCO4)c(=O)n2C1c1ccccc1F (stereo not given),1,-10
O=C(O)CCCCCN1C(=O)/C(=C/c2ccc(Cl)cc2)SC1=S,-4,-10
CC(=O)Oc1cccc2ccc(/C=C/c3cn(C(C)=O)nc3-c3ccccc3)nc12,0,-1
COc1ccc(C)cc1S(=O)(=O)Nc1ccc(Br)cc1C(=O)NCc1ccccc1,25,19
CCc1cc2c(N3CCCCC3)ncnc2s1,1,-1
FC(F)(F)c1cnc(N2CCCC(c3ccn[nH]3)C2)c(Cl)c1 (stereo not given),3,3
O=C1CCc2cc(-c3csc(=Nc4ccccc4F)n3CCCn3ccnc3)ccc2N1,-8,-12
CN1CCN(c2nc(-c3ccc(Cl)s3)cs2)CC1,-3,-3
Cc1nn(-c2ccccc2)c2nc(Cc3ccccc3)nc(N3CCCN(C(=O)Nc4ccc(C#N)cc4)CC3)c12,-1,4

# By substructure: the entries above containing a thiophene ring, fused or not.
SMILES,NPYLR7 agonist,NPYLR7 agonist max-min
CCOc1ccc(-c2ccc(OCCNC(=O)Cc3cccs3)nn2)cc1,0,-1
Cc1ccccc1CCNC(=O)Cn1c(-c2cccs2)n[nH]c1=S,0,-1
CC(NC(=O)c1ccc(-c2ccccc2F)s1)C(=O)N1CCCCC1 (stereo not given),0,0
Cc1ccsc1[C@@H]1CCN(C2CCN(S(C)(=O)=O)CC2)C[C@H]1O,4,-1
Cc1ncc2c(c1CNC(=O)Cc1cccs1)CCN(C(=O)/C=C/c1ccccc1Cl)C2,15,2
CC1CCc2c(sc(NC(=O)c3ccccc3[N+](=O)[O-])c2C#N)C1 (stereo not given),-1,-5
CN(CC(=O)O)S(=O)(=O)c1cccs1,1,-2
O=c1[nH]c(SCCO)nc2sc3c(c12)CCCC3,40*,60*
COc1ccc(-n2c(SCc3ccc(C(=O)NC4CC4)cc3)nnc2-c2cccs2)cc1,20,21
CCOC(=O)c1c(C2CC2)csc1NC(=O)COC(=O)C1=COCCO1,3,5
Cc1cccc(CNC(=O)c2ccc(-c3ccc(Oc4ccccc4)cc3)s2)c1,15,19
O=S(=O)(c1cccs1)N1CCN(c2ncnc3c2nnn3-c2cccc(F)c2)CC1,-9,-16
CCc1cc2c(N3CCCCC3)ncnc2s1,1,-1
CN1CCN(c2nc(-c3ccc(Cl)s3)cs2)CC1,-3,-3
